# TRPML1 blocker: qHTS for Inhibitors of the Human Mucolipin Transient Receptor Potential 1 (TRPML1). Mucolipin-1 (Homo sapiens), Q9GZU1. TRPML1-inducible cells, Ca2+ dye fluorescence, FDSS; active compounds read low; inhibition of EC80 agonist-evoked calcium signal. activity change, negative = inhibition, % (concentration not given with the values). 390,000 tested, 0.02% active; in the data active means activity change below about -50%; inconclusive means about -30% to -50%; inactive means above about -30%;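 further: stimulus is agonist 54-4 at its EC80 concentration; on the % scale 0 is the no-effect control and ±100 the full control effect; the text of the record puts the active cut at -80%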
# Target sequence (Q9GZU1 whole entry, looked up): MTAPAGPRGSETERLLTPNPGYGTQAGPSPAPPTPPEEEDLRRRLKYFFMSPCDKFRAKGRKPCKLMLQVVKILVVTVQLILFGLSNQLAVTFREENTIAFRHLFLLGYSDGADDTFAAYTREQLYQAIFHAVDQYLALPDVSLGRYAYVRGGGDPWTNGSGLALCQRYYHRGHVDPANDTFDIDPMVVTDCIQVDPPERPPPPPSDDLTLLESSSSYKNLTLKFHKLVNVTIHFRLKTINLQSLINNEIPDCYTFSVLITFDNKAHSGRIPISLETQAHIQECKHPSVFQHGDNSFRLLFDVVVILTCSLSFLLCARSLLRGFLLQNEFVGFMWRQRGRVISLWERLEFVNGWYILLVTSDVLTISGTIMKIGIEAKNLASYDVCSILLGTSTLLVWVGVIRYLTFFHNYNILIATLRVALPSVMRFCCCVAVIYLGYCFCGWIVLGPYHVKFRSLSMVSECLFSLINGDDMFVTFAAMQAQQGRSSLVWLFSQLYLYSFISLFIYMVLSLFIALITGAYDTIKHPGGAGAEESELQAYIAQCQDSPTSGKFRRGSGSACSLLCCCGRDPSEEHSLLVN
#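 TRPML1-DL cells, Tet-induced overnight (~16 h, 37 °C) at 1,500 cells/well, were loaded with Ca8 no-wash dye plus quencher for 45-90 min at room temperature. Compounds were pinned during FDSS kinetic reading; agonist 54-4 at EC80 (4 uM final) then added.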
# TRPML1 ag: qHTS for Agonists of the Human Mucolipin Transient Receptor Potential 1 (TRPML1) | Mucolipin-1 (Homo sapiens), Q9GZU1 | TRPML1-expressing cells, Ca2+ dye fluorescence, FDSS; host cell line not named in the record; reference of the full effect not given here | activation, % (no concentration beside the values) | 410,000 tested, 0.12% active | AID 624414, 2012; in the data active = activation above about 50%; inconclusive = about 30% to 50%; inactive = below about 30%; further: 0% is about no effect; the text of the record puts the active cut at 80%
#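 Tet-induced TRPML1-DL cells, 1,500 per well, cultured overnight, were loaded with a no-wash Ca2+ dye for 45–90 min. Calcium fluorescence was recorded on the FDSS for 110 s after compound addition, before the EC80 agonist (4 uM 54-4) was added.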
# Active calls of the source: *. Not all compounds are listed; rates above refer to the full screens.
SMILES,TRPML1 blocker,TRPML1 ag
Cc1ccc2nc(N(Cc3cccnc3)C(=O)COc3ccccc3)sc2c1,-1,2.0
CCCOc1ccc(CNC(=O)C2CCN(C(=O)c3sccc3-n3cccc3)CC2)cc1,-10,1.3
Cc1cccc(C(=O)NCCc2sc(-c3ccccc3)nc2C)c1,-9,2.5
COc1cccc(CNC(=O)Cc2c(C)c3ccc(OC)c(C)c3oc2=O)c1,9,-0.5
CCCCCN1C(C(=O)c2ccccc2)=C(NC(=O)c2ccc(OC)c(OC)c2)c2ccccc2S1(=O)=O,4,1.3
Cc1ccc(C(=O)n2nc(C)c(S(=O)(=O)N3CCOCC3)c2C)cc1,-4,-0.4
CCOc1ccc(C(=O)Nc2cccc(OCc3cc(=O)n4ccccc4n3)c2)cc1,35,2.0
CC(C)N(Cc1ccccc1)C(=O)c1nc(-c2ccc(Cl)cc2)n2c1CCCCC2,21,0.2
CCOc1ccccc1N1CC(c2nc3ccccc3n2CCCOc2ccc(OC)cc2)CC1=O (stereo not given),1,-1.0
COc1ccccc1C(=O)Nc1nc2nc(C)c(Cc3ccccc3)c(=O)n2[nH]1,7,0.2
Cc1ccc(-c2nc(S(=O)(=O)c3ccc(C)cc3)c(SCC(=O)c3ccccc3)o2)cc1,6,1.3
CC1=C(C(=O)Nc2cccnc2)C(c2ccc(F)cc2)n2nc(-c3cccc(C)c3)nc2N1 (stereo not given),18,0.3
Cc1ccc2oc(C(=O)Nc3sc4c(c3C(=O)NCc3cccnc3)CCCC4)cc(=O)c2c1,-17,-0.6
COc1cccc(NC(=O)c2sc3nc(C)c(C(=O)Nc4ccc(Cl)cc4)c(-c4ccc(Br)cc4)c3c2N)c1,6,0.1
COc1cc2nc(SCC(=O)Nc3ccc(F)cc3)n3nc(CCn4c(C)nc5ccccc54)nc3c2cc1OC,4,-0.4
COc1ccc(Cl)cc1NC(=O)c1cc2ccc3ccc(C)[nH]c3c2n1,22,2.0
Cc1ccc(-c2nn(-c3ccc(F)cc3)c3c2cnc2cc(F)c(F)cc23)cc1,-17,1.3
Cc1ccccc1C(=O)Nc1nnc(S(=O)(=O)N2CCCc3ccccc32)s1,54,0.6
O=C(NCCCN1CCCCC1)c1[nH]c2ccccc2c1Sc1ccc(Cl)cc1,1,-0.4
COC(=O)c1ccccc1NC(=O)Cn1c(=O)n(CCCC(=O)NCc2ccccc2Cl)c(=O)c2ccccc21,-2,1.8
COc1ccc(C2CC(=O)N(Cc3cccc(C)c3)c3c2c(C)nn3-c2nc(C)cc(C)n2)c(OC)c1 (stereo not given),-2,-0.7
CC(C)(C)c1ccc(C(=O)NCC(=O)OCc2cc(=O)n3nc(C4CC4)sc3n2)cc1,-24,-0.6
Cc1ccc(C2CCN(C(=O)c3cnn(-c4cccc(Cl)c4)c3C3CCN(C(=O)OC(C)(C)C)CC3)C2)cc1 (stereo not given),-1,59*
Cc1ccc(Cl)cc1N1CCN(C(=O)c2sc3nc4n(c(=O)c3c2C)CCC4)CC1,-10,-0.5
Cc1cccc(N2CCN(c3c(CN4CCCC4)c(=O)oc4ccccc34)CC2)c1C,16,0.7

# The list goes on.
SMILES,TRPML1 blocker,TRPML1 ag
Cc1cccc(OCC(=O)NCc2ccc3c(c2)CCN3C(=O)c2ccccc2)c1,-2,2.6
CCCCOc1ccc(C(=O)Nc2nnc3n2CCS3)cc1,-15,2.2
CC(C)(C)OC(=O)N1CCC(c2c(C(=O)N3CCN(C(=O)c4ccco4)CC3)cnn2-c2ccccc2Cl)CC1,-23,3.3
CC(=O)C1=C(c2ccc(Cl)c(Cl)c2)N(C(C)=O)n2cnnc2S1,16,-0.4
CCc1ccc(S(=O)(=O)c2cn(CC)c3cc(N4CCCCC4)c(F)cc3c2=O)cc1,-19,-0.5
COc1cccc(CNC(=O)C2CCN(S(=O)(=O)c3ccc4c(ccn4C)c3)CC2)c1,5,2.3
Cc1cc(=O)n2nc(N(C)CC(=O)NCc3ccc(Cl)cc3)sc2n1,4,-0.6
COc1ccc(Cl)cc1NC(=O)c1sc2nc(-c3ccc(OC)c(OC)c3)ccc2c1N,-3,-0.1
Cn1c(=O)oc2cc(S(=O)(=O)N3CCCC(C(=O)NCCc4ccc(Cl)cc4)C3)ccc21 (stereo not given),8,-0.1
COc1ccc(C(=O)NCc2ccc3c(c2)CCN3C(C)=O)c(OC)c1,6,2.2
CC(C)c1ccccc1NC(=O)Cn1cnc2c1c(=O)n(C)c(=O)n2C,-23,-1.1
Cc1cc2c(cc1S(=O)(=O)Nc1cccc(Cl)c1C)OCCN2C,5,-0.3
COc1ccccc1-c1cc2nc(C)c(CCC(=O)NCCc3cccc(C)c3)c(C)n2n1,-6,1.0
CCNC(=O)C1CCN(Cc2cc3ccccc3n2Cc2ccc(C)cc2)CC1,23,2.1
CCOc1ccc(NC(=O)CSc2ccc3ccccc3n2)cc1,17,3.1
Cc1ccc(S(=O)(=O)Nc2cc3c(cc2Cl)n(C)c(=O)c(=O)n3C)cc1,-9,1.6
Clc1ccc(-c2nnn3c2nc(NC2CCCCC2)c2ccccc23)cc1,14,-0.9
CCc1ccccc1NC(=O)c1sc2nc3n(c(=O)c2c1C)CCC3,1,-0.2
Cc1cc(C)cc(NC(=O)N2CCC(CN3CCCCCC3)CC2)c1,22,1.0
CC1=C(C(N)=O)C(c2ccc(C)cc2)n2nc(SCc3ccccc3F)nc2N1 (stereo not given),-12,-0.2
CCOc1cc(C(=O)Nc2ccc3oc(-c4ccc(CC)cc4)nc3c2)cc(OCC)c1OCC,-20,1.9
CN1C(=O)C2(c3ccccc31)N(c1cccc(F)c1)C(=O)CS2(=O)=O (stereo not given),8,0.6
CCc1ccc2occ(CC(=O)Nc3sc4c(c3C(=O)NCCOC)CCCC4)c2c1,13,0.3
CC(C)c1ccc(Cc2cn3cc(-c4cc5ccccc5oc4=O)nc3s2)cc1,-10,-0.2
CCCN1C(=O)C2(c3ccccc31)c1c(oc3ccc(F)cc3c1=O)C(=O)N2CCCOC(C)C (stereo not given),5,0.2

# Carrying on.
SMILES,TRPML1 blocker,TRPML1 ag
CCN(C(=O)c1cc2c(s1)-c1c(C)cccc1OC2)c1ccccc1F,46,3.7
COc1ccc(C(CNC(=O)COc2ccc(C)cc2)N2CCCCC2)cc1 (stereo not given),-7,-0.1
Cc1cc(/C=C(\C#N)C(=O)Nc2ccccc2)c(C)n1-c1ccc(F)cc1,-4,0.4
COc1cccc(-c2oc3ccc(C)cc3c(=O)c2O)c1,4,13
Cc1ccc(-c2c(CN3CCN(c4cccc(C)c4C)CC3)csc2C)cc1,-3,0.7
COC(=O)c1c(-c2ccc(Cl)cc2)noc1N1CCN(c2cccc(OC)c2)CC1,16,-1.0
CCOC(=O)c1ccc(NC(=O)Cn2cc(C(=O)c3ccc(Cl)cc3)c(=O)c3ccc(C)nc32)cc1,-6,0.2
CCCN(CCC)CCNC(=O)c1sc2nc3n(c(=O)c2c1C)CCCCC3,0,-0.5
O=C(COc1ccccc1)Nc1ccc2nc(SCC(=O)N3CCc4ccccc43)sc2c1,-4,0.9
Cc1cc(C)c2c(N)c(C(=O)Nc3ccccc3C(F)(F)F)sc2n1,-18,2.4
CCN1CCN(Cc2c(O)ccc3oc(C)c(C(=O)Nc4ccc(OC)cc4)c23)CC1,1,-0.6
Cc1ccc(C2NC(=O)c3n[nH]c(-c4cccs4)c32)cc1 (stereo not given),21,0.3
Cc1cccc(CN2C(=O)c3ccccc3S(=O)(=O)c3ccc(C(=O)N(C)Cc4ccccc4)cc32)c1,10,-0.2
COc1ccc(C(=O)c2cn(Cc3cccc(C)c3)c3cc4c(cc3c2=O)OCO4)cc1,17,2.2
CCCNC(=O)N1CCN(S(=O)(=O)c2ccc3c(ccn3C)c2)CC1,11,2.8
CCOC(=O)CN(Cc1ccccc1)C(C(=O)NC1CCCCC1)c1ccc(OC)cc1 (stereo not given),9,0.4
CCn1c(=O)c(=O)n(CC)c2cc(N3CCCCC3)c(NC(=O)c3cccc(OC)c3)cc21,37,1.7
COc1cc(C(=O)NC(c2ccc(Cl)cc2)c2cc(Cl)c3cccnc3c2O)cc(OC)c1OC (stereo not given),-3,0.1
O=C(CSC1=Nc2ccccc2N=C(c2ccc(F)cc2)C1)Nc1ccccc1,-6,0.5
Cc1ccc(C)c(NC(=O)Cn2cc(S(=O)(=O)Cc3cccc(Cl)c3)c3ccccc32)c1,-4,0.2
CCc1ccc(NC(=O)CN2CCN(Cc3ccccc3)S2(=O)=O)cc1,-1,3.4
CCC1CN(C(=O)Nc2cc(C)ccc2OC)c2cc(Cl)ccc2O1 (stereo not given),18,2.7
Cc1ccccc1CNC(=O)c1ccc(Cn2c(SCc3cccc(F)c3)nc3cccnc32)cc1,8,4.2
Cn1nnnc1SCCNCc1ccc(OCc2ccccc2Cl)cc1,-8,-0.4
COCCCNC(=O)c1cc2n(n1)CCCN(Cc1ccc(C)cc1)C2=O,12,-0.3

# Entries above that have an NH in an aromatic ring:
SMILES,TRPML1 blocker,TRPML1 ag
COc1ccccc1C(=O)Nc1nc2nc(C)c(Cc3ccccc3)c(=O)n2[nH]1,7,0.2
COc1ccc(Cl)cc1NC(=O)c1cc2ccc3ccc(C)[nH]c3c2n1,22,2.0
O=C(NCCCN1CCCCC1)c1[nH]c2ccccc2c1Sc1ccc(Cl)cc1,1,-0.4
Cc1ccc(C2NC(=O)c3n[nH]c(-c4cccs4)c32)cc1 (stereo not given),21,0.3

# Following part
SMILES,TRPML1 blocker,TRPML1 ag
Nc1ncc(S(=O)(=O)Nc2ccc(F)cc2F)cn1,13,-0.5
O=C(CCc1ccccc1)N(Cc1cccnc1)c1nc2ccc(F)cc2s1,10,1.4
Cc1ccc(S(=O)(=O)c2nc(-c3ccccc3)oc2N2CCN(c3ccccc3)CC2)cc1,5,-0.5
CCn1cc(S(=O)(=O)c2ccccc2)c(=O)c2cc(F)c(N3CCN(c4ccccc4)CC3)cc21,4,-0.6
COc1ccc(-c2nn3c(=O)cc(CN4CCN(C(=O)c5ccc(C(C)(C)C)cc5)CC4)nc3s2)cc1,-13,-1.2
COc1ccc(N2CCN(c3ncnc4c3cnn4-c3ccc(C)c(Cl)c3)CC2)cc1,-16,-0.7
COc1ccccc1-n1c(=O)n(C)c2c(C(N)=O)nc(-c3cccc(OC)c3OC)nc21,1,1.5
CCC(Oc1ccccc1F)C(=O)N1CCC(c2nc3ccccc3s2)CC1 (stereo not given),-9,1.1
COc1ccc(NC(=O)c2oc3ccccc3c2NC(=O)C23CC4CC(CC(C4)C2)C3)cc1,-12,-0.1
Cc1ccc(-c2noc(-c3ccccc3NC(=O)c3ccccc3)n2)cc1,-1,-0.3
Cc1cccc(C(=O)OCc2cc(=O)n3nc(C4CCCCC4)sc3n2)c1,14,-1.1
COc1ccc(-c2cc(-c3ccc(C)cc3)nc3c2COc2ccccc2-3)cc1,6,0.0
CCC(=O)N1CCc2cc(CNC(=O)Nc3cc(Cl)ccc3C(=O)OC)ccc21,-5,0.5
Cc1c(NC(=O)Nc2ccc(Br)cc2F)sc2nc3n(c(=O)c12)CCC(C)CC3 (stereo not given),18,-0.1
Cc1ccc(COC(=O)c2[nH]c3c(c2C)C(=O)CC(c2ccc(Cl)cc2)C3)cc1 (stereo not given),1,1.1
O=C(Cn1cc(SCc2ccc(C(F)(F)F)cc2)c2ccccc21)N1CCCCCC1,59,0.6
Cc1cc(C)cc(NC(=O)C2CCN(S(=O)(=O)c3ccc4c(c3)oc(=O)n4C)CC2)c1,-11,-0.8
CCOc1cc(/C=C(\C#N)C(=O)Nc2ccc(C)cc2)ccc1OCc1cc(=O)n2nc(CC)sc2n1,12,-0.1
CC(=O)c1ccc(NC(=O)c2nn(C)c3c2CS(=O)(=O)c2ccccc2-3)cc1,7,0.0
COC(=O)C1CCN(c2csc3ccc(Cl)cc3c2=O)CC1,-3,-0.5
CC1=C(C#N)C(NC(=O)c2ccccc2)(C(F)(F)F)C(=O)N1 (stereo not given),0,1.2
COc1cc(NC(=O)c2cc3ccc4cccnc4c3[nH]2)cc(OC)c1OC,3,0.3

# Quoted at random: 6 records from the list, in no set order.
SMILES,TRPML1 blocker,TRPML1 ag
COc1ccc(-c2nn3c(=O)cc(CN4CCN(C(=O)c5ccc(C(C)(C)C)cc5)CC4)nc3s2)cc1,-13,-1.2
Cc1ccc(-c2noc(-c3ccccc3NC(=O)c3ccccc3)n2)cc1,-1,-0.3
COc1ccc(N2CCN(c3ncnc4c3cnn4-c3ccc(C)c(Cl)c3)CC2)cc1,-16,-0.7
CCC(Oc1ccccc1F)C(=O)N1CCC(c2nc3ccccc3s2)CC1 (stereo not given),-9,1.1
Cc1ccc(S(=O)(=O)c2nc(-c3ccccc3)oc2N2CCN(c3ccccc3)CC2)cc1,5,-0.5
Nc1ncc(S(=O)(=O)Nc2ccc(F)cc2F)cn1,13,-0.5

# Compound activity deposited in PubChem by National Center for Advancing Translational Sciences (NCATS).
